PKD1 kinase inh: inhibitors of human PKD1 kinase. Q15139. PKD1 kinase fluorescence polarization assay. inhibition, %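 (about 10 µM by stock and volumes)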. actives 0.056% (n = 200,000);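 active means inhibition of 50% or more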;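 further: controls were vehicle for no effect and a reference inhibitor for full effect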
RGS16-Gao: modulates binding between human RGS16 and Galphao | O15492+P09471 | bead-based flow cytometry RGS16-Galphao binding, fluorescence; actives lie on both sides | binding response (% of control), % at 10 µM | actives 0.38% (n = 220,000) | AID 1441;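 active means below 25% or above 175%, edge rows of some plates excepted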;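 further: Galphao activated by GDP with aluminum fluoride before binding; 100% = wells without compound and 0% = beads without RGS; some results beyond the cut were filed as inactive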
Target sequence (O15492 whole entry, looked up): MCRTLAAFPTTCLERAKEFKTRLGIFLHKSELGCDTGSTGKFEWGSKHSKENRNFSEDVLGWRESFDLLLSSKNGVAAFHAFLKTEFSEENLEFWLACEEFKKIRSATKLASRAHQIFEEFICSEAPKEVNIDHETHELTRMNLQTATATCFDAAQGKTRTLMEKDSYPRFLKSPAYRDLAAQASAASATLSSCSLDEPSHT
Target sequence (P09471 whole entry, looked up): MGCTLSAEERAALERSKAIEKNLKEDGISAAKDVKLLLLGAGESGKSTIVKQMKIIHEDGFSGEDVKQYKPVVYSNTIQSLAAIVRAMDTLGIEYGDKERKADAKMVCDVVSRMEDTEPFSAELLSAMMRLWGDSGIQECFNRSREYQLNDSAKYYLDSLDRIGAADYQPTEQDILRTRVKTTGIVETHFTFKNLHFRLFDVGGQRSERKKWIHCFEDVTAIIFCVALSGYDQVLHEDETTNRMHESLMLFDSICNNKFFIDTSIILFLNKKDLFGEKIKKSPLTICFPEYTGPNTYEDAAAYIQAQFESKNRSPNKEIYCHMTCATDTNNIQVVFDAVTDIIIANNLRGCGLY
Insulin prom inh: TRM-6 insulin promoter activity inhibition. TRM-6 cells (human fetal islet line), insulin promoter-eGFP reporter, imaging; reporter expression induced with tamoxifen. inhibition, % at 2 µM. actives 0.9% (n = 130,000). AID 1273;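 active means inhibition above the mean plus 3 SD, with well images judged a real hit on visual review, cut at about 60% in these data, passing the limit was not always enough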
HSV augment: HSV replication enhancement. HSV replication augmentation in cells, fold increase. maximum fold increase. actives 0.005% (n = 220,000). AID 1956;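 active means peak rise of 1.5-fold or more in the series; tested in PC3 cells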;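 further: first round at 10 µM; read as green reporter fluorescence; hits show the peak of a series up to 25 µM; 1 = signal of infected wells without compound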
GALR2 agonist: GALR2 (human) receptor agonism. O43603. GALR2-expressing cells, agonist activation read-out. activation, %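 (tested at 5 µM)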. actives 0.48% (n = 140,000);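 active means above mean plus 3 SD of all compounds, about 5% in these data, not always enough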;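 further: 0% = vehicle buffer wells and 100% = reference agonist at full effect; tested in CHO reporter cells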
Target sequence (O43603 whole entry, looked up): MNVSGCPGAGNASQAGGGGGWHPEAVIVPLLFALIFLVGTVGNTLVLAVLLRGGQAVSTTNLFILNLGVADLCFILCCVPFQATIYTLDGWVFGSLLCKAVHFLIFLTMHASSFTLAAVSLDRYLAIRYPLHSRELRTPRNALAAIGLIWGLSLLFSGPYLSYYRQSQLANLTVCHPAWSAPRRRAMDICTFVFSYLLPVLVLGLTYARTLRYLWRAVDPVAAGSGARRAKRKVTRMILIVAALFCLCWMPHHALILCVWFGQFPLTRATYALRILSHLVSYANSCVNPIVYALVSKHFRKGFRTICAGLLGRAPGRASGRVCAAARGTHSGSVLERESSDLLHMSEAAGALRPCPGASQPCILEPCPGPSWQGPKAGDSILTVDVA
Insulin prom inh cell count: further read-out of Insulin prom inh, marked with its call; normalized cell count, %; measured here: cell count, toxicity; reference of the scale not given here;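 cells exposed to compound for 48 h; stained nuclei by imaging scaled within each plate; lower means fewer cells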
HSV augment primary fold: also measured in HSV augment; calls as there; fold increase; compound at 10 µM; measured here: primary screen fold increase 10 uM; tested in PC3 cells;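 GFP signal in the first replicate; 1 = infected wells without compound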
Numbers without * were called inactive; i = inactive; · = no result given.

SMILES	RGS16-Gao	HSV augment primary fold	Insulin prom inh	GALR2 agonist	Insulin prom inh cell count	PKD1 kinase inh	HSV augment
COc1cccc(C2CC(=O)Nc3cc(OC)c(OC)c(OC)c32)c1OC (stereo not drawn)	107	0.88	13	-1.7	106	-6	i
CC1CC(c2ccccc2)n2nc(NC(=O)c3cccs3)nc2N1 (stereo not drawn)	104	0.85	4	-1.9	103	-17	i
CCN(CC(=O)Nc1ccc2c(c1)OCCO2)C(=O)c1cccc(S(=O)(=O)N2CCOCC2)c1	103	0.93	3	-2.5	117	1	i
O=C(CSc1nccc2ccccc12)N1CCN(c2ccccn2)CC1	98	·	·	-2.6	·	-13	·
CCCCOC(=O)Nc1nnc(-c2ccccc2OC)s1	98	0.91	·	-1.8	·	12	i
Cc1ccc(Cl)cc1NC(=O)CCC(=O)O	95	0.96	·	·	·	·	i
CCC(CC)c1nc(C#N)c(NC(C)c2ccccc2)o1 (stereo not drawn)	107	0.92	23	-1.6	111	-5	i
COc1ccc2nc(NC(=O)C3CCCO3)sc2c1 (stereo not drawn)	99	1.1	·	·	·	-2	i
COc1ccc(C2CC(c3ccc(Br)cc3)=NN2C(=O)CN2CCCC2)cc1 (stereo not drawn)	91	0.91	·	·	·	·	i
c1ccc(Cc2nnc3sc(-c4ccco4)nn23)cc1	95	0.69	·	-1.8	·	8	i
O=C(N/N=C/c1ccc(OC(=O)c2ccccc2)cc1)c1ccc(CN2CCOCC2)cc1	109	1	5	-0.7	61	-2	i
O=C(CN1CCC(C(O)(c2ccccc2)c2ccccc2)CC1)Nc1ccccc1	118	0.8	·	-1.0	·	0	i
Cc1cccc(C)c1-n1c(C)nn(CCOc2ccccc2)c1=O	98	0.96	·	·	·	-7	i
O=C(NC1CCc2ccccc21)c1cc(COc2c(F)cccc2F)on1 (stereo not drawn)	110	1	·	·	·	·	i
CC(C(=O)N1CCOCC1)(c1ccccc1)c1ccccc1	152	0.95	-35	-0.1	104	2	i

Arranged by length of the SMILES (largest number first): 3 of the compounds above.
SMILES	RGS16-Gao	HSV augment primary fold	Insulin prom inh	GALR2 agonist	Insulin prom inh cell count	PKD1 kinase inh	HSV augment
O=C(NC1CCc2ccccc21)c1cc(COc2c(F)cccc2F)on1 (stereo not drawn)	110	1	·	·	·	·	i
CC1CC(c2ccccc2)n2nc(NC(=O)c3cccs3)nc2N1 (stereo not drawn)	104	0.85	4	-1.9	103	-17	i
Cc1cccc(C)c1-n1c(C)nn(CCOc2ccccc2)c1=O	98	0.96	·	·	·	-7	i

Continued:
SMILES	RGS16-Gao	HSV augment primary fold	Insulin prom inh	GALR2 agonist	Insulin prom inh cell count	PKD1 kinase inh	HSV augment
Fc1ccc(C2=NNC(=NCc3ccccc3)SC2)cc1F	100	1	-29	·	75	3	i
CCOC(=O)N1CCN(CC(=O)Nc2cc(OCC)ccc2OCC)CC1	103	0.91	-211	0.0	62	-3	i
Cc1nc(-c2ccccc2)cn(O)c1=O	23	0.97	5	·	53	3	i
Cc1ccc(-n2c3c(c(=O)[nH]c2=O)C(C(F)(F)F)(C(F)(F)F)NC(=O)N3)cc1	114	1	11	-1.3	39	-1	i
CC(C)(C)OC(=O)N1CCC[C@H]1C(=O)N/N=C/c1cccc2cccnc12	100	0.78	·	·	·	·	i
c1ccc(-c2nnc(-c3ccccn3)c(-c3ccccn3)n2)nc1	96	0.94	·	·	·	·	i
O=C(COC(=O)c1cncc(Br)c1)Nc1ccc2c(c1)OCO2	99	1	-91	·	31	-6	i
O=C(NC(NC(=S)N1CCOCC1)C(Cl)(Cl)Cl)c1ccc(Cl)cc1 (stereo not drawn)	100	0.98	·	-2.5	·	-1	i
O=[N+]([O-])c1ccccc1N/N=C\c1ccccc1Cl	95	1	·	-1.0	·	7	i
CSc1nnc(-c2cccc(NC(=O)c3ccccc3)c2)n1C	91	1	·	·	·	·	i
O=C(NC1CCCCC1)C(c1ccccn1)N(C(=O)c1csnn1)C1CCCCC1 (stereo not drawn)	143	1.1	·	·	·	-4	i
O=C(NCc1ccccc1Cl)NCc1ccccc1Cl	46	1	·	·	·	·	i
CCOC(=O)NC(=O)/C(C=Nc1ccc(Cl)c(Cl)c1Cl)=C(\C)O	93	0.96	-64	-3.3	109	10	i
CCn1c2ccccc2c2cc(/C=N/n3c(C)nnc3C)ccc21	102	0.86	·	-3.8	·	-2	i
CCOc1cc(S(=O)(=O)NCc2cccnc2)c(C)cc1C	90	1.2	·	·	·	7	i

(more compounds)
SMILES	RGS16-Gao	HSV augment primary fold	Insulin prom inh	GALR2 agonist	Insulin prom inh cell count	PKD1 kinase inh	HSV augment
O=C(CNC(=O)C(c1ccccc1)c1ccccc1)N/N=C/c1ccc(O)c([N+](=O)[O-])c1	101	0.91	32	0.9	120	-1	i
CC(C)N(C(=O)Cn1cnc2cc([N+](=O)[O-])ccc2c1=O)C(C)C	96	0.95	·	·	·	-8	i
N#Cc1c(N)n(-c2ccccc2N)c2nc3ccccc3nc12	94	0.74	·	·	·	·	i
COc1ccc(-c2ccc(S(=O)(=O)N3CCOCC3)cc2)cc1	90	0.92	·	-0.3	·	1	i
C=CCOC(=O)C1=C(C)NC(=S)NC1c1cccs1 (stereo not drawn)	110	0.95	·	-1.1	·	-4	i
O=c1c2ccccc2nc2n1C(CSc1ccc(F)cc1)CN2 (stereo not drawn)	98	0.95	-2	-3.7	105	-2	i
COC(CNC(=O)CC1C(=O)N(Cc2ccccc2)C(C)c2nc3ccccc3n21)OC (stereo not drawn)	98	0.97	-29	·	96	-3	i
Clc1cccc(Nc2nc(-c3cccnc3)cs2)c1	103	0.8	33	·	78	-2	i
COc1cc(/C=C/C(=O)Nc2ccc(N3CCCCC3)c(S(=O)(=O)Nc3ccccc3Cl)c2)cc(OC)c1OC	99	0.87	-18	-0.8	71	-5	i
O=C(OCc1nnc(-c2ccc(Cl)cc2)o1)c1ccc(O)cc1	98	0.81	-61	·	181	0	i
COc1ccc(/C=C/C(=O)OCC(=O)N2CC(=O)Nc3ccccc32)cc1	99	0.88	-3	-1.9	121	-1	i
CC1(C)CC(=O)C2(CC3=C(CC(C)(C)CC3=O)O2)C(=O)C1	102	0.97	·	-1.0	·	-6	i
Cc1ccc(N(C(=O)c2ccn[nH]2)C(C(=O)NC2CCCC2)c2cccs2)cc1 (stereo not drawn)	110	1	·	·	·	-3	i
CC(C)NC(=O)c1onc(CSc2ccccc2)c1C(=O)O	104	0.85	5	-4.0	219	7	i
NC(=O)C1CCN(C(=O)/C=C/c2cc(Br)ccc2F)CC1	102	1	17	·	126	6	i

Profiles as entered above. Screens in order: RGS16-Gao, HSV augment primary fold, Insulin prom inh, GALR2 agonist, Insulin prom inh cell count, PKD1 kinase inh, HSV augment
C=CCOC(=O)C1=C(C)NC(=S)NC1c1cccs1 (stereo not drawn) is entered as 110, 0.95, ·, -1.1, ·, -4, i
N#Cc1c(N)n(-c2ccccc2N)c2nc3ccccc3nc12 is entered as 94, 0.74, ·, ·, ·, ·, i

The list continues:
SMILES	RGS16-Gao	HSV augment primary fold	Insulin prom inh	GALR2 agonist	Insulin prom inh cell count	PKD1 kinase inh	HSV augment
O=C(Nc1cccn(Cc2c(Cl)cccc2Cl)c1=O)c1ccc(Cl)cc1	109	0.82	29	-1.6	125	-8	i
COc1ccc2c(C)cc(SCC(=O)Nc3ncc(Cl)cc3Cl)nc2c1	120	1	-24	-1.1	84	-8	i
CCn1ccnc1CN(C)Cc1nc(-c2ccc3c(c2)OCO3)no1	99	1	·	·	·	9	i
CC(NC(=S)NCCCN1CCOCC1)C12CC3CC(CC(C3)C1)C2 (stereo not drawn)	92	1	47	·	88	1	i
CCOC(=O)c1c(NC(=O)COC(=O)c2cc(OC)c(OC)cc2[N+](=O)[O-])sc(C)c1CC	104	1	·	0.7	·	-1	i
COc1ccc(OC)c(/C=N/NC(=O)c2cc[n+](CC(=O)c3ccccc3)cc2)c1	96	·	29	-2.4	111	2	·
COc1ccc(-n2cc(CNCCc3ncc(C)[nH]3)c(-c3ccccc3Cl)n2)cc1	105	0.81	-60	·	77	0	i
Cc1ccc(N/C(N)=N/c2nc(CSc3nnc(N)s3)cc(=O)[nH]2)cc1	98	1.2	·	·	·	·	i
CCOC(=O)c1ccc(N=NN(C)C)cc1	95	1.1	·	·	·	·	i
CSc1ccccc1NC(=O)Cc1ccccc1[N+](=O)[O-]	100	0.97	·	·	·	5	i
Cc1ccccc1C(=O)Nc1cccc(NC(=O)Cn2cnc3c(=O)n(C)c(=O)n(C)c32)c1	103	0.67	40	-2.2	79	3	i
Cc1cc(OCC(=O)Nc2cnn(CCCC(=O)O)c2)ccc1[N+](=O)[O-]	98	0.88	·	·	·	-6	i
O=C(CCc1nc2ccccc2c(=O)[nH]1)OCC(=O)N1CCN(S(=O)(=O)c2ccccc2)CC1	101	0.94	-79	-2.8	170	-6	i
CCOc1cc(N2CCOCC2)c(OCC)cc1NCC(=O)N1CCN(Cc2ccccc2)CC1	101	0.8	·	·	·	·	i
CN(CC(=O)NC1CCCCC1)S(=O)(=O)c1ccc(Br)s1	98	0.92	32	-2.6	128	5	i

(further entries)
SMILES	RGS16-Gao	HSV augment primary fold	Insulin prom inh	GALR2 agonist	Insulin prom inh cell count	PKD1 kinase inh	HSV augment
Cc1cc(C)n(-c2cc(N3CCN(C(=O)c4ccccc4C)CC3)ccc2[N+](=O)[O-])n1	·	1	-22	-2.3	90	-11	i
Cc1ccnc(NC(=O)CCC(=O)N(CC(=O)NC2CCCCC2)CC2CCCO2)c1 (stereo not drawn)	101	0.85	·	0.0	·	-3	i
C/C(=N\Nc1nc2ccccc2s1)c1ccc2c(c1)OCO2	96	0.98	29	-1.5	73	-8	i
O=C(Nc1ccccc1C(=O)N1CCCCCC1)c1ccccc1	108	1	·	·	·	·	i
COc1cccc(OCC(O)CO)c1 (stereo not drawn)	101	0.48	·	-1.5	·	-5	i
Nn1c(SCc2ccc(Br)cc2)nnc1-c1cccnc1	102	1.1	·	·	·	·	i
O=C1CN(C(=O)Cn2ncc(Cl)c(Cl)c2=O)c2ccccc2N1	96	0.61	·	·	·	1	i
Cc1cc(NC(=O)c2ccc3c(c2)C(=O)N(C)C3=O)no1	104	0.82	7	-2.8	67	-6	i
CN1CCc2c(n(CC(O)CNCc3ccccc3)c3ccccc23)C1=O (stereo not drawn)	101	0.91	·	·	·	3	i
Cc1[nH]nc(SCC(=O)NCCc2ccccc2)c1[N+](=O)[O-]	104	0.99	·	·	·	-5	i
O=C(NCc1ccco1)C(c1ccccc1)N(C(=O)Cc1cccs1)c1ccccc1F (stereo not drawn)	99	0.84	-63	-1.7	70	2	i
CCN(CC)C(=O)C1CCCN(Cc2cccc(Oc3ccccc3)c2)C1 (stereo not drawn)	102	1	·	·	·	·	i
CC(=O)Nc1c(O)nc(SCc2ccccc2C#N)[nH]c1=O	114	0.88	-26	-1.1	78	-6	i
CC(=O)Nc1ccc(S(=O)(=O)N/N=C/c2ccc(C)s2)cc1	97	1	-31	-1.8	117	2	i
O=C(COC(=O)/C=C/c1ccco1)NCCc1ccccc1	99	0.97	-50	·	104	-6	i

The results go on:
SMILES	RGS16-Gao	HSV augment primary fold	Insulin prom inh	GALR2 agonist	Insulin prom inh cell count	PKD1 kinase inh	HSV augment
O=C(CSc1ccc2ccccc2c1)N1CCN(c2ccc(O)cc2)CC1	92	0.8	·	·	·	·	i
O=C(C1CCCN(S(=O)(=O)Cc2ccccc2)C1)N1CCCCC1 (stereo not drawn)	100	0.99	·	-0.8	·	-2	i
CCCn1c(C)cc(C(=O)COc2ccc(-c3nnco3)cc2)c1C	102	·	0	·	69	0	·
Cc1nnc2c3ccccc3c(-c3ccc(O)cc3)nn12	102	·	-28	-0.2	101	-8	·
CC(C)Nc1nc(Cl)nc(NN(C)c2nc(N(C)C)nc(N(C)C)n2)n1	140	0.91	3	0.6	95	7	i
O=C(NCc1n[nH]c(=S)n1-c1ccccc1)c1ccc(S(=O)(=O)N2CCOCC2)cc1	94	0.93	45	-1.4	144	-7	i
COc1cc(OC)cc(C(=O)N[C@H](C(=O)OCC(=O)Nc2ccc(C(C)C)cc2)C(C)C)c1	100	0.78	·	-0.9	·	1	i
CCn1c(COc2ccccc2)nnc1SCC(=O)Nc1cc(C)ccc1OC	99	0.96	-25	-0.2	120	3	i
Cn1c2ccccc2c2ncn(CCN3CCOCC3)c(=O)c21	161	0.91	-46	-0.7	75	-6	i
O=C(Cn1cnc2ccccc2c1=O)OCCCCN1C(=O)c2ccccc2C1=O	95	0.87	·	-1.7	·	-3	i
O=C(c1ccc(Oc2ccccc2)cc1)c1nc2c(n1O)CCCC2	91	0.96	0	-2.5	145	-5	i
CC(=O)Nc1nonc1-c1nc2ccccc2n1CCC(C)C	104	·	·	-1.3	·	-12	·
Cc1cc2cc(CNC(=O)c3ccc(S(=O)(=O)N(C)C)cc3)ccc2n1C	108	1.1	·	-4.3	·	1	i
Cc1ccsc1/C=N/NC(=O)C(=O)NCC(C)C	103	0.91	·	·	·	-5	i

Screening data: PubChem BioAssay, several laboratories
